Screens deposited in PubChem BioAssay by Broad Institute.
AF4-AF9 inh – blocks AF4 peptide binding to human AF9. P42568. AlphaScreen, biotin-AF4 peptide binding to FLAG-AF9. inhibition, % at 10 µM. 350,000 compounds, 0.47% hits;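 active = every replicate reaching a set inhibition limit, whatever the replicate mean, cut at about 25% in these data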;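 also: 0% = plate neutral control median and 100% = total signal loss; the record names both 10 and 1 µM as test concentration; the first replicate is given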
Target sequence (P42568 whole entry, looked up): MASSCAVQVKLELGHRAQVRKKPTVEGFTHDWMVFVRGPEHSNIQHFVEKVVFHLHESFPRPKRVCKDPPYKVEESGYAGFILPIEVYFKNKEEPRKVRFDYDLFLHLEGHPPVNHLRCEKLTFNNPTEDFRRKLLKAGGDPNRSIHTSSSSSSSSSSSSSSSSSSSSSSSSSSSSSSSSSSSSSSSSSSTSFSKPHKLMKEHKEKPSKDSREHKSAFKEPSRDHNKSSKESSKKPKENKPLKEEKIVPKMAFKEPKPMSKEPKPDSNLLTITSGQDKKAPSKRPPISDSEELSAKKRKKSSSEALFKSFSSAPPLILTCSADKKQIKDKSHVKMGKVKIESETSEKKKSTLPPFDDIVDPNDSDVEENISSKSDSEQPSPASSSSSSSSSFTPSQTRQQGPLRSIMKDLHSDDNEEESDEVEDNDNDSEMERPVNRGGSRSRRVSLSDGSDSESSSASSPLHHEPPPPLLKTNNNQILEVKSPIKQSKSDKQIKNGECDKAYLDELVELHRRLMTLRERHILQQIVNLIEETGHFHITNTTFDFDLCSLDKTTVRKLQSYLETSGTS
An asterisk follows results filed as active; & = joins results of further samples. This is a subset; the hit share may differ from the screen's.

#	SMILES	AF4-AF9 inh
1	CN1C(=O)c2cc(NC(=O)c3cccc(F)c3)ccc2OC[C@H]2O[C@@H](CC(=O)NCC3CC3)CC[C@H]21	-4.4
2	COc1ccc(CN2C[C@@H](CO)O[C@@H](n3cnc4c(NCc5ccco5)ncnc43)C2)cc1	-6.1
3	CCc1nc2c(OCCOc3ccc(F)cc3)cccn2c1N(C=O)Cc1ccc(OC)cc1	-1.8
4	Cc1noc(C)c1NC(=O)N(C)C[C@@H]1OCc2cn(nn2)CCCC(=O)N([C@H](C)CO)C[C@H]1C	0.2&-2.9
5	CO[C@@H]1CN(C)C(=O)c2cc(NC(=O)C3CC3)ccc2OC[C@@H](C)N(C)C[C@@H]1C	-1.8
6	CNC[C@H]1Oc2ccc(NC(=O)C3CC3)cc2CC(=O)N([C@H](C)CO)C[C@H]1C	-8.4
7	COc1ccc(NC(=O)N2CC[C@@H]3[C@H]2c2cc(-c4cccc(F)c4)ccc2N(C)[C@H]3CO)cc1	-3.9
8	CO[C@@H]1CN(C)C(=O)c2ccc(NC(=O)C3CC3)cc2OC[C@@H](C)N(CC2CC2)C[C@H]1C	-0.1
9	C[C@@H]1CN([C@H](C)CO)C(=O)c2cc(NC(=O)Nc3cccc4ccccc34)ccc2O[C@@H](C)CCCCO[C@@H]1CN(C)Cc1ccncc1	1.3
10	CCCCn1nnnc1C1(C)CCC(=O)N1c1ccc(N2CCOCC2)cc1 (centres undefined)	4.6
11	C[C@H]1CN([C@@H](C)CO)C(=O)c2cccc(NC(=O)NC3CCCCC3)c2O[C@@H]1CN(C)Cc1ccc(-c2ccccc2)cc1	2.6
12	CC(=O)N(C)C[C@@H]1[C@H](c2ccc(-c3ccc(F)cc3)cc2)[C@H](CO)N1C(C)=O	-3.9
13	CN(N=Cc1ccccc1O)C(=O)c1ccccc1N	0.2
14	COCC(=O)Nc1ccc2c(c1)C(=O)N(C)C[C@H](OC)[C@H](C)CN(Cc1cc(F)ccc1F)[C@@H](C)CO2	6.6
15	Cc1ccc(S(=O)(=O)N2C[C@H]3[C@H]4C(=O)N(c5ccccc5)C(=O)[C@H]4C[C@H](OC(=O)NCc4ccco4)[C@@]3(O)C2)cc1	4.3
16	C[C@@H]1CN([C@H](C)CO)C(=O)c2cc(C3=CCCCC3)cnc2O[C@H]1CN(C)C(=O)CN1CCOCC1	-4.5
17	O=C(NCC[C@H]1CC[C@H](NC(=O)C2CC2)[C@@H](CO)O1)c1cnccn1	-0.3
18	C[C@H](CO)N1C[C@H](C)[C@H](CN(C)C(=O)C2CCOCC2)Oc2ncc(-c3ccncc3)cc2C1=O	-4.4
19	COc1ccc(NC(=O)N[C@@H]2CC[C@H](CCNC(=O)c3ccccc3F)O[C@H]2CO)cc1	-1.2
20	CC(C)NC(=O)Nc1ccc2c(c1)C(=O)N([C@@H](C)CO)C[C@H](C)[C@@H](CN(C)Cc1ccc(C(=O)O)cc1)OCCCC[C@@H](C)O2	-1.2
21	O=C(C[C@@H]1C[C@H]2c3cc(NC(=O)c4cccnc4)ccc3O[C@H]2[C@H](CO)O1)NCc1ccccc1	-2.6
22	COc1cccc(S(=O)(=O)N2CC[C@@H]3[C@H]2c2cc(C#Cc4ccccc4)ccc2N[C@@H]3CO)c1	4.2
23	O=C(C[C@@H]1CC[C@H]2[C@@H](COC[C@@H](O)CN2S(=O)(=O)c2cccc(F)c2)O1)Nc1ccc(-c2ccccc2)cc1	-2.5
24	CC(C)Oc1ccc(F)cc1-c1cc(C(=O)Nc2ccc(C(C)(C)C)cc2)[nH]n1	-5.1
25	CC(=O)Nc1ccc(C(=O)N2CCCCC2c2cc(C(=O)Nc3cccc(C#N)c3)no2)cc1 (centres undefined)	-2.0

The final three compounds of the part above open the next one.
#	SMILES	AF4-AF9 inh
23	O=C(C[C@@H]1CC[C@H]2[C@@H](COC[C@@H](O)CN2S(=O)(=O)c2cccc(F)c2)O1)Nc1ccc(-c2ccccc2)cc1	-2.5
24	CC(C)Oc1ccc(F)cc1-c1cc(C(=O)Nc2ccc(C(C)(C)C)cc2)[nH]n1	-5.1
25	CC(=O)Nc1ccc(C(=O)N2CCCCC2c2cc(C(=O)Nc3cccc(C#N)c3)no2)cc1 (centres undefined)	-2.0
26	CC(C)CC#Cc1cnc2c(c1)C(=O)N([C@@H](C)CO)C[C@H](C)[C@H](CN(C)C(=O)Cc1cccnc1)O2	-6.4
27	CC(=O)N(C)C[C@H]1Oc2ncc(/C=C/c3ccccc3)cc2C(=O)N([C@H](C)CO)C[C@@H]1C	2.5
28	CC(=O)N(C)C[C@@H]1Oc2cc(Br)ccc2S(=O)(=O)N([C@H](C)CO)C[C@@H]1C	0.4&-4.5&-4.4
29	N#Cc1ccc(-c2ccc3c(c2)[C@@H]2[C@@H](CCN2C(=O)C2CC2)[C@H](CO)N3)cc1	-3.1
30	C[C@@H]1CN([C@H](C)CO)C(=O)c2cc(C#CC3CCCCC3)cnc2O[C@H]1CN(C)S(C)(=O)=O	-14.3
31	C[C@H](CO)N1C[C@H](C)[C@@H](CN(C)C(=O)c2ccccc2)OCCCC[C@H](C)Oc2ccc(NC(=O)c3ccccc3)cc2C1=O	-0.3
32	CCNC(=O)C[C@H]1CC[C@@H]2[C@H](COC[C@@H](O)CN2C(=O)C2CCCC2)O1	-2.7
33	CCCNC(=O)Nc1ccc2c(c1)C(=O)N(C)[C@@H]1CC[C@H](CC(=O)NC3CCC3)O[C@H]1CO2	0.3
34	C[C@@H]1CN([C@H](C)CO)S(=O)(=O)c2ccc(C#CC3CC3)cc2O[C@@H]1CN(C)C(=O)c1cccnc1	1.7
35	COc1cccc(C#Cc2ccc3c(c2)O[C@@H](CN(C)S(=O)(=O)c2ccccc2F)[C@@H](C)CN([C@H](C)CO)S3(=O)=O)c1	-3.0
36	CCCNC(=O)C1(C)CCCN(C(=O)c2ccccc2OC(F)(F)F)C1 (centres undefined)	-6.6
37	Cc1ccc2ccccc2c1C(O)c1ncc(-c2ccc(Cl)cc2)[nH]1 (centres undefined)	4.4
38	CN1CCN(C(=O)c2cc3c(c(-c4cccc(C5=CCCC5)c4)n2)[C@@H](CCO)N([S@](=O)C(C)(C)C)C3)CC1	-6.4
39	C[C@H](CO)N1C[C@H](C)[C@@H](CN(C)Cc2cccnc2)Oc2cc(/C=C/c3ccccc3)ccc2S1(=O)=O	4.7
40	Cc1ccc(S(=O)(=O)N(C)C[C@@H]2OCCCC[C@H](C)Oc3ccc(NS(=O)(=O)c4ccccc4)cc3C(=O)N([C@H](C)CO)C[C@@H]2C)cc1	4.1
41	CN(C)C(=O)c1ccc(-c2ccc3c(c2)[C@H]2[C@H](CCN2C(=O)Cc2ccccn2)[C@@H](CO)N3C)cc1	3.2
42	O=C(C[C@H]1C=C[C@H](NC(=O)Cc2cccnc2)[C@@H](CO)O1)NCc1ccc2c(c1)OCO2	0.3
43	Fc1ccc(-c2ccc(C3[C@H]4CNC[C@@H]3N4Cc3ccccn3)cc2)cc1 (some centres undefined)	-0.2
44	C[C@H]1CN([C@@H](C)CO)C(=O)c2cccc(NC(=O)c3ccc(-c4nccs4)cc3)c2O[C@@H]1CN(C)Cc1ccc(Cl)c(Cl)c1	2.6
45	O=C(Cc1ccccn1)N1CC(=O)N2[C@@H](CO)[C@H](c3ccc(C#CC4CCCC4)cc3)[C@@H]2C1	4.1
46	CCCNC(=O)N1C[C@@H](O)COC[C@H]2O[C@H](CC(=O)N[C@H]3CCN(Cc4ccccc4)C3)CC[C@@H]21	-6.0
47	C[C@H]1CN([C@@H](C)CO)C(=O)c2c(c3ccccc3n2C)-c2ccccc2CO[C@@H]1CN(C)S(=O)(=O)c1cccc(F)c1	-3.4
48	CC(C)NC(=O)NC[C@H]1[C@@H](c2ccccc2)[C@@H](CO)N1C(=O)c1ccccc1	-0.9
49	Cc1cccc(S(=O)(=O)N2CC[C@H]3[C@H](CO)Nc4ccc(C#Cc5cccnc5)cc4[C@H]32)c1	13.1
50	COCC(=O)N[C@@H]1CC[C@H](CC(=O)N2CCCCC2)O[C@H]1CO	-4.1

Ordered by number of heavy atoms (descending): part of the list above.
#	SMILES	AF4-AF9 inh
26	CC(C)CC#Cc1cnc2c(c1)C(=O)N([C@@H](C)CO)C[C@H](C)[C@H](CN(C)C(=O)Cc1cccnc1)O2	-6.4
46	CCCNC(=O)N1C[C@@H](O)COC[C@H]2O[C@H](CC(=O)N[C@H]3CCN(Cc4ccccc4)C3)CC[C@@H]21	-6.0
45	O=C(Cc1ccccn1)N1CC(=O)N2[C@@H](CO)[C@H](c3ccc(C#CC4CCCC4)cc3)[C@@H]2C1	4.1

Following part.
#	SMILES	AF4-AF9 inh
51	C[C@@H]1CN([C@H](C)CO)C(=O)c2cc(-c3ccncc3)cnc2O[C@@H]1CN(C)C(=O)c1ccncc1	-6.9
52	C[C@@H]1CN([C@@H](C)CO)C(=O)Cc2cc(NC(=O)Cn3cnnn3)ccc2O[C@H]1CN(C)Cc1ccc(-c2ccccc2)cc1	8.4
53	Cc1cc2c(c(C)c1CCO)C(=O)[C@H](C)C2	-3.0
54	CCCNC(=O)N1C[C@@H](O)COC[C@H]2O[C@@H](CC(=O)NCCCN3CCOCC3)CC[C@@H]21	-8.1
55	Cc1ccc(S(=O)(=O)Nc2ccc3c(c2)C(=O)N([C@@H](C)CO)C[C@@H](C)[C@@H](CN(C)C(=O)c2ccccc2)OCCCC[C@H](C)O3)cc1	-1.5
56	O=C1O[C@@H](c2ccccc2)C[C@@H](O)C(=O)CCCCc2ccccc21	-2.2
57	C[C@@H]1CN([C@H](C)CO)C(=O)c2cc(NC(=O)C3CCCCC3)ccc2O[C@H]1CN(C)Cc1ccc(-c2ccccc2)cc1	2.7
58	O=C(O)C[C@@H]1C[C@@H]2c3cc(NC(=O)NC4CCCC4)ccc3O[C@@H]2[C@@H](CO)O1	-2.6
59	COC(=O)[C@@]1(CCS(=O)(=O)c2ccccc2)N=C(c2ccc(OCCCO)cc2)O[C@H]1c1ccccc1CN=[N+]=[N-]	6.3
60	S=c1[nH]nc(COc2ccccc2)n1-c1ccc(Cl)cc1	-12.6
61	Cc1noc(C)c1NC(=O)N(C)C[C@H]1Oc2c(NC(=O)C3CCCCC3)cccc2C(=O)N([C@H](C)CO)C[C@H]1C	-2.7
62	O=S1(=O)N[C@@H](Cc2ccccc2)COc2cc(N3CCC[C@@H]3CO)ccc21	-10.0
63	O=S(=O)(N[C@@H]1CC[C@@H](CCn2cc(-c3cccnc3)nn2)O[C@H]1CO)c1ccc(F)cc1	1.5
64	O=C(C[C@@H]1CC[C@H]2[C@@H](COC[C@H](O)CN2Cc2nccs2)O1)NCc1ccccc1F	-0.9
65	C[C@H](CO)N1C[C@H](C)[C@H](CN(C)Cc2ccccc2)Oc2ncc(C#Cc3ccccc3)cc2C1=O	7.7
66	C[C@@H]1CN([C@H](C)CO)S(=O)(=O)c2ccc(Br)cc2O[C@H]1CN(C)C(=O)Nc1ccccc1	2.3&0.0
67	O=C(NCc1ccc(F)cc1)c1[nH]c(C(F)(F)F)nc1-c1ccccc1	-0.2
68	CC=Cc1ccc2n(c1=O)C[C@@H]1[C@@H](CO)[C@H](C(=O)NC3CCC3)N(Cc3ccncc3)[C@H]21 (mixture of isomers)	-4.2
69	Cc1noc(C)c1NC(=O)Nc1ccc2c(c1)CC(=O)N([C@H](C)CO)C[C@@H](C)[C@@H](CN(C)S(=O)(=O)c1ccccc1)O2	-17.8
70	CCC(=O)N(C)C[C@H]1Oc2cc(C3=CCCC3)ccc2S(=O)(=O)N([C@H](C)CO)C[C@H]1C	-9.4
71	O=C(NCc1ccncn1)[C@H]1[C@H](CO)[C@H]2Cn3c(ccc(-c4ccncc4)c3=O)[C@H]2N1CC1CC1	-0.8
72	C[C@H](CO)N1C[C@H](C)[C@H](CN(C)S(=O)(=O)c2ccccc2)Oc2c(NC(=O)c3ccncc3)cccc2C1=O	-2.8
73	COc1ccc(NC(=O)N[C@H]2CC[C@@H](CCNC(=O)CN3CCOCC3)O[C@H]2CO)cc1	-5.3
74	C[C@H](CO)N1C[C@H](C)[C@H](CN(C)S(C)(=O)=O)Oc2ncc(C#Cc3ccc(C(F)(F)F)cc3)cc2C1=O	0.0
75	CCOC(=O)[C@@H]1[C@H]2COc3ccccc3[C@@H]2N2C(=O)N(c3ccc(Br)cc3)C(=O)[C@@]12C	0.6
76	CC(C)C#Cc1cnc2c(c1)C(=O)N([C@H](C)CO)C[C@H](C)[C@@H](CN(C)C(=O)c1cccnc1)O2	-0.8
77	CCCC#Cc1cnc2c(c1)C(=O)N([C@H](C)CO)C[C@H](C)[C@H](CN(C)Cc1cccnc1)O2	-0.9
78	O=C(Nc1cc(S(=O)(=O)N2CCOCC2)ccc1N1CCCC1)c1ccccc1C(F)(F)F	1.2
79	Nc1ncnc2c1ncn2C1OC(CO)CC1O (centres undefined)	-1.6
80	CCN(C[C@@H]1[C@@H](c2ccccc2)[C@H](CO)N1C(C)=O)C(=O)c1cccc(F)c1	-0.3
81	C[C@H]1CN([C@@H](C)CO)C(=O)c2cccc(NS(=O)(=O)c3ccccc3)c2O[C@H]1CN(C)Cc1ccc(C(F)(F)F)cc1	2.6
82	O=C(NC[C@@H]1N[C@@H](CO)[C@H]1c1ccc(-c2cccnc2)cc1)c1cccc(F)c1	-0.4
83	COc1ccccc1CNC(=O)COc1cc(O)c2c(c1)OC(C)(C)CC2=O	1.8
84	COc1ccc(CNC(=O)C[C@H]2C[C@H](C(=O)N3CCOCC3)[C@@]3(CCC4CCCC4)c4[nH]c5cc(-c6ccco6)ccc5c4CCN3C2=O)cc1OC	-2.7
85	O=C(Nc1ccc(F)cc1)N1CCCCN2[C@@H](CO)[C@@H](c3ccc(-c4ccncc4)cc3)[C@@H]2C1	3.5
86	O=C(NCc1ccccc1)C(c1ccccc1)n1c(=O)c(-c2cc3ccccc3[nH]2)nc2ccccc21 (centres undefined)	-29.9
87	COc1ccc(CNC(=O)C[C@@H]2C[C@H]3c4cc(N(C)C)ccc4O[C@H]3[C@@H](CO)O2)cc1	0.6
88	C[C@H]1CN([C@@H](C)CO)C(=O)c2ccccc2-c2ccccc2CO[C@H]1CN(C)C(=O)CCN(C)C	-1.8
89	C[C@H]1CN([C@@H](C)CO)C(=O)Cc2cc(NC(=O)CCCCCC(=O)Nc3ccccc3N)ccc2O[C@@H]1CN(C)C	3.0
